Mtb growth: M. tuberculosis H37Rv growth inhibitors, H37Rv strain (AID 1626); one-dose inhibition, % at 10 µM; IC50 in µM for titrated hits; M. tuberculosis H37Rv growth inhibition; higher % means a stronger effect; actives 0.95% (n = 220,000);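 active means confirmed in a dose series; inconclusive means inhibition above 80% but not taken into the dose series; inactive means below 80% or under 30% at every dose of the series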;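 further: bacteria incubated seven days before Alamar blue readout; 0% = bacteria only wells and 100% = bacteria with antibiotic wells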
Mtb bLac sens: beta-lactam sensitization of Mtb H37Rv. inhibition, % at 25 µM. actives 0.27% (n = 330,000). M. tuberculosis H37Rv growth with meropenem, percent inhibition; hits of this screen are not shown here;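 active means about 74% or more and at least 40 points above the plate without the antibiotic, then above 30% in a dose series; inconclusive means first-round hits that could not be retested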;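 further: growth measured after seven days incubation then overnight dye step; 0% = bacteria only wells and 100% = bacteria with antibiotic; twin plates without the antibiotic show which effects depend on it; some results filed as inactive read as strong as hits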
YopH PTP inh: blocks Yersinia enterocolitica YopH tyrosine phosphatase | fluorescence Ex485/Em525 | inhibition, %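 (about 10 µM by stock and volumes)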 | actives 0.16% (n = 140,000) | AID 898;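 active means inhibition of 50% or more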;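 further: controls were vehicle for no effect and minimum signal wells for full effect; inactives centre near -20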
RecA intein inh: Mtb RecA intein splicing inhibition; inhibition, %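 (about 9 µM by stock and volumes)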; P9WHJ3; cell-free RecA intein splicing, fluorescence; AID 2221; actives 0.75% (n = 290,000); in the data active means inhibition above about 30%; inconclusive means no clear call, values can overlap the other calls;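 further: 0% = vehicle wells and 100% = reference inhibitor control wells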
Target sequence (P9WHJ3 whole entry, looked up): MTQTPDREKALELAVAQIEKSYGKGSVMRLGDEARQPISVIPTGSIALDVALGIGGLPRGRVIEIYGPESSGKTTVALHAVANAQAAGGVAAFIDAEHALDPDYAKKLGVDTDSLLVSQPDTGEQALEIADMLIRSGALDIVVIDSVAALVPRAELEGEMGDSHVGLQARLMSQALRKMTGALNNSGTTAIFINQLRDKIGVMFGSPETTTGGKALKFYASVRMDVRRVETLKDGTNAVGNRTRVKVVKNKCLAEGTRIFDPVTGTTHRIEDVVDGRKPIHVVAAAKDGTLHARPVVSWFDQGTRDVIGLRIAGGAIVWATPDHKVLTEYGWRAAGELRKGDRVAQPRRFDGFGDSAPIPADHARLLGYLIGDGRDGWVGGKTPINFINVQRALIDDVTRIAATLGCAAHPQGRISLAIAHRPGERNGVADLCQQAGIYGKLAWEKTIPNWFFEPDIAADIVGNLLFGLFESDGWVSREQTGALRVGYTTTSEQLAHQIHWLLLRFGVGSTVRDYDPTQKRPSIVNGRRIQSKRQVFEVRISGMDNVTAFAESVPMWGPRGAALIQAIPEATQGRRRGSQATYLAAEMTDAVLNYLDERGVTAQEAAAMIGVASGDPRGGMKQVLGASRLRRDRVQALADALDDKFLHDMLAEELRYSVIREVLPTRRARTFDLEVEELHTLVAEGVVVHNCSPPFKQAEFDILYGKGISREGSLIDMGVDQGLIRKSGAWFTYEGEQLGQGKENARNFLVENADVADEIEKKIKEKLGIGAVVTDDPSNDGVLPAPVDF
Arbovirus inh: antivirals against arbovirus infection. arbovirus infection cell-based antiviral screen. inhibition, % at 10 µM. actives 0.37% (n = 200,000);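 active means inhibition from about 30%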;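 further: bluetongue infection of BSR cells; cell survival read as ATP light after 72 h; 0% = infected wells without compound and 100% = uninfected wells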
Arbovirus inh repeat: second read-out of Arbovirus inh, no call of its own (marks repeat the call); inhibition, %; measured here: 10K subset replicate screen; many hits read low in the repeat;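 first of two repeat runs on a subset; 0% = infected and 100% = uninfected wells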
An asterisk follows results filed as active; ? = inconclusive; · = no result given. These rows are one share of the data; the hit share may differ from the screen's.

SMILES	Mtb growth	Mtb bLac sens	YopH PTP inh	RecA intein inh	Arbovirus inh	others
O=C(Nc1ccc(F)cc1)c1cccc2c1C(=O)N(Cc1ccccn1)C2	11%	4	-1	·	-2
Cc1cc(NC(=O)CCC(=O)N(CC(=O)NC2CCCC2)c2cccc(C)c2C)no1	-15%	-8	8	·	·
Cc1cc(F)ccc1NC(=O)Nc1ccc2c(c1)OCO2	·	-3	·	-6.7	·
NNC(=O)C1SCCN1S(=O)(=O)c1ccc(Cl)cc1 (configuration not stated)	·	-3	·	1.8	·
Cc1cccc(C)c1NC(=O)c1nc(S(=O)(=O)Cc2ccccc2)ncc1Cl	·	14	·	36*	·
CCn1c(O)c(C=Nc2ccc(N3CCOCC3)cc2)c(=O)n(CC)c1=S	-12%	-15	-28	-6.1	-2
COc1ccc(-c2cc(C(F)(F)F)n3ncc(C(=O)Nc4c(C)n(C)n(-c5ccccc5)c4=O)c3n2)cc1	-4%	1	·	4.7	-4
COc1cc(/C=N/n2nnnc2N)ccc1OC(C)=O	·	-1	·	-4.1	·
CCOC(=O)c1c(C)n(-c2ccc(C)cc2)c2c(C(C(C)=O)C(=O)O)c(Br)c(O)c(O)c12 (configuration not stated)	-3%	63	-2	1.0	-15
CCc1c(C)nc(N2CCN(c3ccc(Cl)cc3)CC2)[nH]c1=O	·	1	·	-1.4	·
CC(NC(=O)c1ccc(Cl)cc1)C(=O)N1CCCCC1 (configuration not stated)	·	-4	-65	-0.5	2	Arbovirus inh repeat=-1
Cn1nnc2cc(C(=O)Nc3ccccc3)ccc21	-1%	9	·	0.2	-2
CC(=O)N(CCCCl)C(C#N)c1ccccc1 (configuration not stated)	-6%	2	-12	·	0
COc1ccc(Cl)cc1C(=O)Nc1nnn(C)n1	-7%	-4	-47	0.5	6
CCCN1C2CCCC1CC(NC(=O)c1ccc(F)cc1)C2 (configuration not stated)	0%	-3	-16	-2.5	-2

Retrieved one by one from the list above:
SMILES	Mtb growth	Mtb bLac sens	YopH PTP inh	RecA intein inh	Arbovirus inh	others
Cc1cc(NC(=O)CCC(=O)N(CC(=O)NC2CCCC2)c2cccc(C)c2C)no1	-15%	-8	8	·	·
CCn1c(O)c(C=Nc2ccc(N3CCOCC3)cc2)c(=O)n(CC)c1=S	-12%	-15	-28	-6.1	-2
CCOC(=O)c1c(C)n(-c2ccc(C)cc2)c2c(C(C(C)=O)C(=O)O)c(Br)c(O)c(O)c12 (configuration not stated)	-3%	63	-2	1.0	-15

Continuation.
SMILES	Mtb growth	Mtb bLac sens	YopH PTP inh	RecA intein inh	Arbovirus inh	others
COCCNC(=O)CN(Cc1ccc(F)cc1)C(=O)CCC(=O)Nc1nccs1	·	-8	·	14	·
Cc1ccc2[nH]c(O)c(N=NC(=O)CCc3ccccc3)c2c1Br	7%	2	-25	-2.5	-12
Cc1cc(C(=O)Nc2c(C)nn(Cc3ccccc3Cl)c2C)no1	-2%	-7	-20	0.1	-1
O=C(O)c1ccccc1C(=O)NCCc1c(C(=O)O)[nH]c2ccc(Cl)cc12	-2%	3	·	1.3	·
COc1ccccc1NC(=O)C(C)OC(=O)/C(=C/c1ccccc1)NC(C)=O (configuration not stated)	·	-5	·	0.5	·
CC(=O)Nc1ccc(NS(C)(=O)=O)cc1	3%	-4	-7	-0.1	6
O=C(Nc1ccc(O)c(-c2nc3ccccc3s2)c1)c1cc(=O)c2ccccc2o1	-3%	0	-31	-2.9	-26
Cc1ccsc1C(=O)C1CCCN(Cc2cnc(N3CCOCC3)s2)C1 (configuration not stated)	6%	-5	·	6.1	2
Cc1ccccc1/C=N/Nc1ccc(Cl)nn1	0%	14	·	4.0	6
COC(=O)CN(c1ccc(Cl)cc1C)S(C)(=O)=O	1%	0	·	-1.6	-4
C#CCOCCOCCOCCNc1nc(N2CCN(C(=O)Cn3cc(CCCCN)nn3)CC2)nc(N2CCN(C(=O)[C@H](C(C)C)n3cc(CCO)nn3)CC2)n1	-5%	5	-7	1.2	7
Cc1cc(Br)ccc1NC(=O)C1CCCO1 (configuration not stated)	-8%	6	8	1.0	3
COc1ccc(C(=O)NC(=S)NC(C)(C)C)cc1Br	10%	76	-20	4.3	7
Cc1ccccc1C(=O)Oc1cccc2c(O)cccc12	·	4	·	8.6	·
CN(Cc1ccc(F)cc1)C(=O)C(Cc1ccccc1)NC(=O)c1ccccc1 (configuration not stated)	·	-13	·	-1.1	·
Cc1ccc(NC(=O)c2cc(-c3ccc4c(c3)OCO4)on2)cc1	·	4	·	0.1	·
CCN(C(=O)c1c(-c2ccccc2)noc1C)c1ccccc1	-10%	3	-8	1.5	1
CN=CC1=C(O)C(C(=O)OC)C(C)(C)CC1=O (configuration not stated)	-1%	7	·	-3.5	3
CC1CCCC/C1=N\Nc1ccc(S(N)(=O)=O)cc1[N+](=O)[O-] (configuration not stated)	0%	10	-21	-2.4	4
CC(C)n1cc(C(N)=S)c(=O)n(Cc2ccccc2)c1=O	·	-1	·	1.4	·
c1ccc2sc(C3CCNCC3)nc2c1	·	5	·	-0.2	·
CC1=NN(/C(=N\c2nnc(C)s2)Nc2ccccc2)[C@H](c2ccc(C)cc2)S1	-7%	2	-4	2.4	-15
CCCNC(=O)c1cc(-c2ccccc2)c(N2CCCCC2)s1	·	1	·	-1.1	·
CCN1C(=O)[C@H]2[C@@H](c3ccc(-c4ccc(F)cc4)cc3)N[C@@](CC(C)C)(C(=O)OC)[C@H]2C1=O	·	0	·	0.6	·
C=CCn1cccc(C(=O)Nc2ccc(Cl)cc2)c1=O	·	-1	·	0.4	·
O=C(c1cc(-c2ccccc2O)on1)N1CCc2ccccc2C1	0%	8	-14	0.4	33*	Arbovirus inh repeat=2.4*
COc1ccc(S(=O)(=O)N(CCCN2CCOCC2)Cc2cccc3ccccc23)cc1	10%	15	-23	-3.9	-1
CCCOC(=O)c1cc(NC(=O)/C=C/c2ccccc2)ccc1O	4%	-4	·	10	-2
Cc1ccc(NS(=O)(=O)c2cccc(C(=O)NCC(c3ccc(F)cc3)N3CCOCC3)c2)cc1 (configuration not stated)	·	-1	·	4.9	·
CCN1C(=O)S/C(=C/c2ccc(Oc3ccc([N+](=O)[O-])cn3)c(OC)c2)C1=O	3%	0	·	1.3	-1

Grouped by structure: the compounds so far containing an aryl methoxy group.
SMILES	Mtb growth	Mtb bLac sens	YopH PTP inh	RecA intein inh	Arbovirus inh	others
COc1ccc(-c2cc(C(F)(F)F)n3ncc(C(=O)Nc4c(C)n(C)n(-c5ccccc5)c4=O)c3n2)cc1	-4%	1	·	4.7	-4
COc1cc(/C=N/n2nnnc2N)ccc1OC(C)=O	·	-1	·	-4.1	·
COc1ccc(Cl)cc1C(=O)Nc1nnn(C)n1	-7%	-4	-47	0.5	6
COc1ccccc1NC(=O)C(C)OC(=O)/C(=C/c1ccccc1)NC(C)=O (configuration not stated)	·	-5	·	0.5	·
COc1ccc(C(=O)NC(=S)NC(C)(C)C)cc1Br	10%	76	-20	4.3	7
COc1ccc(S(=O)(=O)N(CCCN2CCOCC2)Cc2cccc3ccccc23)cc1	10%	15	-23	-3.9	-1
CCN1C(=O)S/C(=C/c2ccc(Oc3ccc([N+](=O)[O-])cn3)c(OC)c2)C1=O	3%	0	·	1.3	-1

More compounds follow:
SMILES	Mtb growth	Mtb bLac sens	YopH PTP inh	RecA intein inh	Arbovirus inh	others
CC(NC(=O)c1ccc(Cl)c(Cl)c1)c1ccc(-c2ccccc2)cc1 (configuration not stated)	-5%	6	·	-0.9	·
CCOc1ccc(CCNC(=O)CS(=O)Cc2nc(-c3ccccc3Cl)oc2C)cc1OCC (configuration not stated)	·	4	·	-6.8	·
COCCN=C1NN=C(c2ccc(NC(C)=O)cc2)CS1	-4%	2	·	-2.4	0
CC[C@H](C)Cc1cn([C@@H](CCCN=C(NC(=O)OC(C)(C)C)NC(=O)OC(C)(C)C)C(=O)NCCCCCCCCCCC(=O)N2CCN(C(=O)OC(C)(C)C)CC2)nn1	·	99	·	1.8	·
Cc1ccc(NC(=O)C(NS(=O)(=O)c2cccc3nsnc23)C(C)C)nc1 (configuration not stated)	-4%	-3	-2	1.8	6
CCOC(=O)C1=C(Cc2ccc(C)cc2)C(=O)c2ccccc2C1=O	3%	37	-6	61*	1
O=C(NC(=S)Nc1ccc2c(c1)OCO2)c1ccc(Cl)cc1	2%	-3	-28	-1.6	-10
COc1ccc(C(=O)N/C(=C/c2ccccc2F)C(=O)NCCN2CCOCC2)cc1OC	·	-13	·	-0.5	·
O=C(c1ccc(CN2CCOCC2)cc1)N1CCC(Cc2ccccc2)CC1	-14%	-7	-18	1.3	-6	Arbovirus inh repeat=1
CC1CCN(C(=O)c2ccc(NC(=O)c3cccs3)cc2)CC1	·	4	·	2.4	·
COc1ccc(N/N=C(\C#N)C(=O)NCCc2ccc(OC)c(OC)c2)cc1	-9%	2	·	0.7	·
COCc1nnc(NS(=O)(=O)c2ccc(F)cc2)s1	·	1	·	-2.8	·
COc1ccc(Br)cc1CNC(C)c1ccccc1 (configuration not stated)	8%	0	-28	1.0	-1
O=C1CNC(=O)N1Cc1ccc(Br)cc1	4%	0	-43	0.4	-5
CCCn1c(SCC(=O)Nc2nnc(C)s2)nnc1-c1ccoc1C	-1%	-5	-39	-0.2	0

The closing 2 records of the section above are carried over, then new ones follow.
SMILES	Mtb growth	Mtb bLac sens	YopH PTP inh	RecA intein inh	Arbovirus inh	others
O=C1CNC(=O)N1Cc1ccc(Br)cc1	4%	0	-43	0.4	-5
CCCn1c(SCC(=O)Nc2nnc(C)s2)nnc1-c1ccoc1C	-1%	-5	-39	-0.2	0
CCc1ccc2c(COC(=O)CNS(=O)(=O)c3ccc(NC(C)=O)cc3)cc(=O)oc2c1	4%	5	-1	0.6	-6
Cc1cc(NC(=O)CCCC(=O)O)nc(C)n1	-12%	-5	-42	-0.7	5
Cc1nc(Cc2nnc(SC(C)C(=O)Nc3cccc(C#N)c3)o2)cs1 (configuration not stated)	·	4	·	-1.7	·
CN1C(C(=O)NCC2CC2)CC2Cn3c(nc4ccccc43)C21 (configuration not stated)	·	-20	·	0.8	·
CN(Cc1ccccc1)C(=O)c1ccco1	-4%	-7	·	-1.4	-2
O=C(c1ccccc1)N1CCN(C(=O)c2ccccc2)CC1	-12%	-3	-19	-1.8	0
Cc1ccc(S(=O)(=O)N2CCC(C(=O)Nc3nnc(-c4ccc(F)cc4)s3)CC2)cc1	-4%	-1	-21	1.5	7
COC(=O)C1=C(C)NC(=O)/C1=C\c1cc(C)n(-c2ccc(F)cc2)c1C	-2%	2	·	-0.5	-9
CC(C)NC(=O)NC(=O)COc1cccc2c1OC(C)(C)C2	-4%	-1	-11	·	5
COc1cc(OC)cc(C(=O)N[C@H](C(=O)Nc2ccc3c(c2)OCO3)C(C)C)c1	1%	-4	·	0.5	-13
CCOc1ccc(C(=O)Cc2cc3cccc(OC)c3oc2=O)cc1	·	-1	·	1.4	·
S=c1nc(C2CC2)[nH]c2ccccc12	3%	0	-9	-0.2	10
CCCC(=O)NCCc1nc2ccccc2n1CCC	5%	0	-24	0.6	10	Arbovirus inh repeat=-4
COc1ccc(CCNCc2sccc2C)cc1	·	-7	·	-2.9	·
Cc1nn(-c2ccccc2)c(N2CCCCC2)c1/C=N/O	-5%	3	-39	2.2	3
O=C(N/N=C/c1cc([N+](=O)[O-])cc([N+](=O)[O-])c1O)/C(=C\c1cccs1)NC(=O)c1ccccc1	-1%	5	-21	5.9	8
CCN(CC(=O)NCc1ccc(Cl)cc1)C(=O)/C=C/c1ccc(C#N)cc1	·	3	·	-0.6	·
Cc1ccc2c(c1)N(N=O)CCC2	1%	-3	-20	-2.7	6
Cc1ccc2[nH]c(=O)c(CN(Cc3nnnn3Cc3ccccc3)C3CCCC3)cc2c1	-3%	0	7	0.2	-23
N#CCCn1cc(/C=N/NC(=O)c2ccncc2)c(-c2ccccc2)n1	?	98	-10	2.9	-3
c1cn(CCCNC2=NCCCCC2)cn1	-8%	3	-29	-1.0	12
O=C(NNC(=O)c1ccc(Oc2cc(Cl)cc(Cl)c2)o1)c1ccccc1	5%	·	·	-1.0	·
NC(=O)CSc1oc(-c2cccs2)nc1S(=O)(=O)c1ccccc1	-7%	6	-59	0.0	-11
COc1cc(/C=C/C(=O)c2c(O)n(CCc3ccccc3)c(=O)[nH]c2=O)ccc1O	7.6µM*	98	0	4.0	46*
O=C(CCCn1c(SCC(=O)NCC2CCCO2)nc2ccccc2c1=O)NCc1ccccc1 (configuration not stated)	-3%	-15	-47	4.9	3
O=C(CCc1nnc(CCCc2ccccc2)o1)NCCc1ccco1	-11%	-9	·	1.5	-4
CC(OC(=O)C1CC(=O)N(Cc2ccccc2)C1)C(=O)Nc1ccc(F)cc1Cl (configuration not stated)	·	-4	·	-1.1	·
